Screening data as filed in PubChem BioAssay.
E coli RNAP – E. coli RNAP inhibitors, biochemical; inhibition, %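 (tested at 10 µM)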; E. coli RNA polymerase, fluorescence transcription assay; DNA-directed RNA polymerase subunit beta (Escherichia coli (strain K12)), P0A8V2; 62,000 tested, 0.2% active; AID 559, 2006; in the data active = inhibition above about 20%;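 note: 0% = enzyme without compound and 100% = no enzyme blank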
CatB block – human cathepsin B inhibitors, primary screen, biochemical, fluorogenic substrate; P07858; purified cathepsin B, fluorescence; inhibition, %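 (tested at 10 µM)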; 63,000 tested, 0.1% active; AID 453, 2006; in the data active = inhibition above about 21%;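 note: 0% = enzyme with no compound and 100% = no enzyme blank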
CatB mix inh – cathepsin B inhibitors from pooled compounds, primary screen, biochemical, compound mixtures, AMC fluorescence; inhibition, %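 (ten-compound pools at 5 µM per compound and 50 µM total)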; Purified cathepsin B, AMC dipeptide fluorescence; AID 488, 2006; 62,000 tested, 0.06% active; P07858; in the data active = inhibition above about 22%, passing the limit was not always enough; inconclusive = no clear call, values can overlap the other calls;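 note: 0% = enzyme without compound and 100% = no enzyme blank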
CatS inh – inhibitors of human cathepsin S, biochemical, compound mixtures; recombinant cathepsin S, AMC dipeptide fluorescence, pooled mixtures; P25774; AID 501, 2006; inhibition, %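 (tested at 5 µM per compound within 10-compound mixtures)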; 62,000 tested, 0.06% active; in the data active = inhibition above about 32%, passing the limit was not always enough; inconclusive = no clear call, values can overlap the other calls;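 note: 0% = enzyme without compound and 100% = blank without enzyme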
Target sequence (P25774 115-331 limits assumed): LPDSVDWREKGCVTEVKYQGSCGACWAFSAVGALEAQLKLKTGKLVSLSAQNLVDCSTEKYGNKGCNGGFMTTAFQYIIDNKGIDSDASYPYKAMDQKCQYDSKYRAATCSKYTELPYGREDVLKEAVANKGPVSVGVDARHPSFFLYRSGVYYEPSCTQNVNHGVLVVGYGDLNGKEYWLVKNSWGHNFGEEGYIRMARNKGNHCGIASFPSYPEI
RORA act – activators of orphan receptor RORA, primary screen, cell-based, luminescence | Nuclear receptor ROR-alpha (Homo sapiens), P35398 | activation, % at 10 µM | CHO-K1 Gal4-RORA LBD luciferase reporter; percent increase over mock-subtracted basal signal | 65,000 tested, 1.5% active;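 active = activation above the mean of all tested compounds plus 3 SD, cut at about 49% in these data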;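 note: 0% = DMSO-treated RORA cells and 100% = added signal equal to DMSO minus mock-transfected cells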
Target sequence (P35398 whole entry, looked up, the tested form may be a part): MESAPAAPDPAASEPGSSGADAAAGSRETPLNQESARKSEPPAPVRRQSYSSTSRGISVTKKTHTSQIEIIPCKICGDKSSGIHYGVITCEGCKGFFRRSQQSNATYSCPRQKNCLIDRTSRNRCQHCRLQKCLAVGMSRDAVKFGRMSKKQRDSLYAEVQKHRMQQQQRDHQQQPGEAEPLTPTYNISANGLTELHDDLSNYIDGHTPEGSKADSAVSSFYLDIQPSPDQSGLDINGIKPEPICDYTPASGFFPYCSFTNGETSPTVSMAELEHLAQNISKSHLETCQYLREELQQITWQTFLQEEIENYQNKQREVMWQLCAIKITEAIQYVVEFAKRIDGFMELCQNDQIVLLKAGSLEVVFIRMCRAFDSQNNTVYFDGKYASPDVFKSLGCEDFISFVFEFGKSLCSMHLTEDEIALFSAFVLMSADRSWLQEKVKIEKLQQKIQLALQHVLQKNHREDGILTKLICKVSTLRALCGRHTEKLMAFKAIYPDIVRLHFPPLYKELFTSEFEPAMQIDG
AP complement – alternative complement pathway inhibitors, primary screen, biochemical, ELISA, human serum, orthogonally pooled compounds. LPS-coated ELISA, C3 deposition; tested in compound mixtures. inhibition, % at 5 µM. 62,000 tested, 0.08% active. AID 1235, 2008;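 active = inhibition above 30% in each of the two pooled mixtures holding the compound, so the lower value exceeds 30%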;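 note: 0% = serum in Mg-EGTA without compound and 100% = EDTA serum blank; some compounds past the cut are filed as inactive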
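Test system: human serum complement alternative pathway, C3 deposition onto LPS / Medium: Mg2+-EGTA GVB++ buffer containing human serum at 1:15 dilution / Probe or stimulus: Plate-bound LPS / Times: 1 h at 37 °C / Signal: ELISA with HRP anti-human C3 antibody, TMB substrate, absorbance 450 nm / Measure: percent inhibition / Repeats: two pool placements per compound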
* = called active by the depositor; u = inconclusive; x = not tested or not shown.

SMILES	E coli RNAP	CatB block	CatB mix inh	CatS inh	RORA act	AP complement
COc1ccc(C2=NOC(C(=O)NCc3ccc(F)cc3)C2)cc1OC (stereo not given)	-14	-1	-5	7	-4	-13
COc1ccccc1C1/C(=C(/O)c2ccccc2)C(=O)C(=O)N1CC(C)O (stereo not given)	5	7	6	1	2	12
CN1CCN(c2nc(C(N)=O)cc(-c3ccccc3)n2)CC1	-1	1	x	x	-1	x
COC(=O)c1c(NC(=O)Cc2cccs2)sc2c1CCC(C)C2 (stereo not given)	8	2	7	4	-1	19
CCC(C)(C)n1nnnc1C(c1cc2cccc(C)c2[nH]c1=O)N1CCN(C(=O)c2ccco2)CC1 (stereo not given)	-1	0	7	9	-9	-1
COc1cc(SC)ccc1C(=O)N1CCCCCC1	6	-6	5	-4	-12	14
O=C1C2ON(c3ccccc3)C(c3ccccn3)C2C(=O)N1c1ccc(Br)cc1 (stereo not given)	8	0	8	10	-3	5
Cc1nnc(SCC(=O)N2CCC(c3noc4ccc(F)cc34)CC2)s1	3	-2	6	5	-24	25
Cc1ccc(CCNC(=O)C2CCCN(c3nc4ccccc4o3)C2)cc1 (stereo not given)	8	-2	-1	3	-5	-6
Cc1ccc(C2CC(=O)NC3=C2C(=O)CCC3)cc1Br (stereo not given)	1	-2	2	0	13	12
CC1(C)CC(NC(=O)C2CCCCC2C(=O)O)CC(C)(C)N1 (stereo not given)	5	1	0	6	14	1
N#Cc1cc2ccccc2nc1SCC(=O)Nc1ccc(S(=O)(=O)N2CCCC2)cc1	3	-2	-13	-30	14	19
CCOC(=O)CNc1nnc(SCC(=O)OCC)[nH]c1=O	6	-1	-8	-17	-2	8
CCOC(=O)N1CCC(NC(=O)C(Cc2ccccc2)NC(=O)c2ccco2)CC1 (stereo not given)	2	-1	-5	5	-6	1
O=C(NCCN1CCN(c2ccccc2)CC1)C1(S(=O)(=O)c2ccc(Cl)cc2)CC1	-1	1	3	-1	7	15
CCCC(=O)Nc1ccc(C(=O)NCCCn2ccnc2)cc1	9	2	50	x	-23	1
Cc1cc(NC(=O)CCCSc2nc(-c3ccco3)cc(C(F)(F)F)n2)no1	10	2	8	20	0	9
CCC(=O)Nc1cccc(NC(=O)COc2ccc(OC)cc2)c1	-2	2	4	-5	-4	17
N#Cc1c(N)n(CCOC(=O)c2ccc(Cl)cc2)c2nc3ccccc3nc12	-4	1	x	x	-4	x
CCN(CC)C(=O)CSc1nnc(-c2ccccc2)n1-c1ccccc1	9	4	3	1	2	11
CC1=C(C(=O)Nc2cccnc2)C(c2ccncc2)n2nnnc2N1 (stereo not given)	2	-1	3	-4	-7	6
CC(C)CN(CCNC(=O)CC1Oc2ccccc2NC1=O)CC(C)C (stereo not given)	6	-2	3	3	-7	11
Cn1cc(CNC(=O)Nc2ccc3c(c2)OCO3)cn1	5	-6	2	-3	40	14
CCCCCn1c(=NC(C)=O)c(C#N)cc2c(=O)n3ccccc3nc21	-12	-4	-3	-7	-5	14
COc1ccc(S(=O)(=O)N(CCN2CCOCC2)Cc2cc(OC)ccc2OC)cc1	11	-3	8	12	2	8
CN(C)CC(C)(C)NS(=O)(=O)c1ccc(Cl)cc1	-4	-2	-2	1	-13	10
CC(=O)Nc1ccc(C(=O)CSc2ncn(-c3ccccc3)n2)cc1	4	3	2	11	40	-17
COc1ccc(OC)c(CCNC(=O)CC2Oc3ccccc3NC2=O)c1 (stereo not given)	2	1	-2	0	2	-1
COc1ccccc1NS(=O)(=O)c1cccc2cccnc12	7	-2	2	3	2	9
O=C(c1ccco1)N1CCN(C(=O)c2cc(-c3ccncc3)nc3ccc(Br)cc23)CC1	7	-2	2	2	4	4
COc1ccc(Cn2nnnc2C(C(C)C)N(Cc2ccco2)Cc2cccs2)cc1 (stereo not given)	0	-4	4	-5	-7	-5
CCOc1cc(S(=O)(=O)NCCN2CCOCC2)c(C)cc1C	-9	2	2	3	-28	-7
CC1(C)CC(=O)C(C=NCCN2CCN(CCc3ccccc3)CC2)=C(O)C1	x	9	x	x	16	x
Cc1ccc(Cn2c(NCCCn3ccnc3)nc3c2c(=O)n(C)c(=O)n3C)cc1	4	2	1	-6	-6	12
Cc1ccc(-n2c(=O)cc(N3CCCCCC3)[nH]c2=O)cc1	5	0	2	-3	-22	13
COC(=O)c1cc2ccsc2n1CC(=O)N(C)c1ccccc1	3	3	8	-3	-37	11

Sorted by heavy-atom count (low to high): part of the list above
SMILES	E coli RNAP	CatB block	CatB mix inh	CatS inh	RORA act	AP complement
CCOc1cc(S(=O)(=O)NCCN2CCOCC2)c(C)cc1C	-9	2	2	3	-28	-7
CC1(C)CC(=O)C(C=NCCN2CCN(CCc3ccccc3)CC2)=C(O)C1	x	9	x	x	16	x
O=C(c1ccco1)N1CCN(C(=O)c2cc(-c3ccncc3)nc3ccc(Br)cc23)CC1	7	-2	2	2	4	4

Reformatted comma-delimited: part of the list above.
Compound,E coli RNAP,CatB block,CatB mix inh,CatS inh,RORA act,AP complement
COc1ccc(C2=NOC(C(=O)NCc3ccc(F)cc3)C2)cc1OC (stereo not given),-14,-1,-5,7,-4,-13
COc1ccccc1C1/C(=C(/O)c2ccccc2)C(=O)C(=O)N1CC(C)O (stereo not given),5,7,6,1,2,12
CN1CCN(c2nc(C(N)=O)cc(-c3ccccc3)n2)CC1,-1,1,x,x,-1,x
COC(=O)c1c(NC(=O)Cc2cccs2)sc2c1CCC(C)C2 (stereo not given),8,2,7,4,-1,19
CCC(C)(C)n1nnnc1C(c1cc2cccc(C)c2[nH]c1=O)N1CCN(C(=O)c2ccco2)CC1 (stereo not given),-1,0,7,9,-9,-1
COc1cc(SC)ccc1C(=O)N1CCCCCC1,6,-6,5,-4,-12,14
O=C1C2ON(c3ccccc3)C(c3ccccn3)C2C(=O)N1c1ccc(Br)cc1 (stereo not given),8,0,8,10,-3,5
Cc1nnc(SCC(=O)N2CCC(c3noc4ccc(F)cc34)CC2)s1,3,-2,6,5,-24,25
Cc1ccc(CCNC(=O)C2CCCN(c3nc4ccccc4o3)C2)cc1 (stereo not given),8,-2,-1,3,-5,-6
Cc1ccc(C2CC(=O)NC3=C2C(=O)CCC3)cc1Br (stereo not given),1,-2,2,0,13,12
CC1(C)CC(NC(=O)C2CCCCC2C(=O)O)CC(C)(C)N1 (stereo not given),5,1,0,6,14,1
N#Cc1cc2ccccc2nc1SCC(=O)Nc1ccc(S(=O)(=O)N2CCCC2)cc1,3,-2,-13,-30,14,19

New compounds follow.
SMILES	E coli RNAP	CatB block	CatB mix inh	CatS inh	RORA act	AP complement
COc1ccc(Nc2ncccc2C(=O)Nc2ccccc2)cc1	3	-3	-8	9	21	-5
COc1ccccc1OCc1nnc(SCC(=O)Nc2ccc(C)cc2)n1C	0	-6	3	-7	-6	27
COc1ccc(C2/C(=C(/O)c3cnn(-c4ccccc4)c3C)C(=O)C(=O)N2CCN(C)C)cc1OC (stereo not given)	5	2	3	10	10	-6
O=S(=O)(NC1CCCCCC1)c1cccc2cccnc12	2	1	3	0	-17	30
CC1(C)NC(=O)N(CNc2cc(Cl)ccc2Cl)C1=O	6	-2	4	3	-15	8
COc1nc(N(c2ccccc2)c2ccccc2)nc(-n2ccnc2)n1	7	0	4	10	-18	6
COC(=O)NC(Nc1sc2c(c1C(N)=O)CCCC2)(C(=O)OC)C(F)(F)F (stereo not given)	x	4	x	x	-2	x
Cc1nc2cc(F)ccc2n1C1CCN(S(=O)(=O)c2ccccc2)CC1	8	3	-16	-28	5	-1
O=C1CC(NCc2ccco2)C(=O)N1CCc1ccccc1 (stereo not given)	2	5	1	-10	1	10
O=C1CC(c2ccccc2)CC(O)=C1C=NCC1CCCO1 (stereo not given)	9	7	-2	-5	0	11
COc1ccccc1C(=O)Nc1ccc2c(c1)OCCO2	5	0	2	-2	33	9
CCCc1cc2c(=O)c(-c3ccccn3)c(C)oc2cc1O	7	-2	2	-6	-8	11
COc1cccc(/C(O)=C2/C(=O)C(=O)N(CCN(C)C)C2c2ccc(Br)cc2)c1 (stereo not given)	x	x	x	x	-5	x
N#Cc1c(N)n(CCOC(=O)c2cccc(Br)c2)c2nc3ccccc3nc12	4	3	0	6	-3	-1
Cc1ccc(CNc2cc(-c3nn4c(C)nnc4s3)ccc2C)s1	2	7	5	-6	-5	15
Cc1cccc(C)c1NC(=O)CSc1nnc(-c2ccco2)n1N	-9	-4	-5	-10	2	13
Cc1cc(C(=O)NCCCn2ccnc2)cs1	3	1	5	-3	-20	12
CCOc1ccc(N(CC(=O)OC)S(=O)(=O)c2c(C)noc2C)cc1	0	3	4	8	7	21
CCCCN=CC1=C(O)C(C(=O)OC)C(C)(C)CC1=O (stereo not given)	-4	1	0	u	-1	-11
O=C(CCSc1nc(-c2ccco2)cc(C(F)(F)F)n1)NCC1CCCO1 (stereo not given)	7	1	6	9	8	9
CCC(=O)Nc1nc2ccccc2n1CCN(CC)CC	-2	0	2	9	-9	13
Cc1cc(C(F)(F)F)nc(SCc2ccc(C(=O)O)o2)n1	10	8	2	14	-18	-10
COc1cc(C2/C(=C(/O)c3ccc(OCC(C)C)cc3)C(=O)C(=O)N2CCN(C)C)ccc1O (stereo not given)	8	0	5	12	-7	0
COc1cc2c(cc1OC)-c1cc(N3CCCc4ccccc43)nc(=O)n1CC2	4	4	1	4	8	-3
CC(C)[C@H](NC(=O)CCn1nnc2ccccc2c1=O)C(=O)O	x	1	2	-2	6	23
CCCCCSc1nc(O)cc(=O)[nH]1	5	5	x	x	-4	x
O=C(CCCC(=O)Nc1cccnc1)Nc1cccnc1	3	-3	3	2	-14	12
CCc1nc(NCCc2ccccn2)c2nnn(Cc3ccccc3F)c2n1	10	2	1	9	27	-15
COc1ccc(C(=O)C(CN2CCOCC2)c2ccccc2)cc1F (stereo not given)	0	1	0	0	-14	26
CN1CCN(c2nc3c(c(=O)n(C)c(=O)n3C)n2CC(N)=O)CC1	9	4	0	8	1	4
O=C(O)CCCCCNC(=O)CCn1nnc2ccccc2c1=O	x	1	-2	-11	5	2
Cc1cc(C)n(CC(=O)NC2CCCCC2)n1	10	4	5	-19	-12	6
C=CCNC(=O)N[C@@H](CCSC)C(=O)OC	9	1	2	-6	-20	10
CCC(=O)c1ccc(OCC(O)CN(C)C2CCCCC2)cc1 (stereo not given)	9	3	1	-4	5	2
O=C(O)c1ccc(NS(=O)(=O)c2cccc3cccnc23)cc1	1	-7	2	-5	-11	16
NC1=NC2(CCN(Cc3ccccc3)CC2)n2c(nc3ccccc32)N1	11	4	5	-2	8	11
NC(=O)C1CCN(Cc2nnnn2Cc2ccco2)CC1	5	2	-4	16	0	-4
CCc1nc(N)nc2c1C(=O)CC(C)(C)C2	-3	2	0	-6	11	-7
COc1ccc(C(=O)NCCc2c[nH]c3ccccc23)cc1S(=O)(=O)N1CCOCC1	-4	3	-4	-8	4	13
Cc1cc(SCC(=O)N2CCC(c3noc4ccc(F)cc34)CC2)nc2ccccc12	1	-1	-4	-6	-6	3
COc1cc(C(=O)OC2CCCCC2=O)cc(OC)c1C (stereo not given)	6	4	1	4	-4	3
Cc1c(N=C2NC(=O)C(CC(=O)Nc3ccccc3)S2)c(=O)n(-c2ccccc2)n1C (stereo not given)	3	-1	-4	9	8	-7
O=S(=O)(c1ccc(F)cc1)N1CCCC(CO)C1 (stereo not given)	4	3	3	-2	-23	16
CC(=O)Nc1ccc(S(=O)(=O)NCCC(=O)OCCN2C(=O)c3ccccc3C2=O)cc1	4	-4	1	-3	26	3
Cc1ccc(C(=O)NC2CCCCCC2)cc1N1CCCC1=O	1	-3	8	-2	12	19
Cc1ccc(S(=O)(=O)NCC(c2ccccc2)N2CCN(CCC#N)CC2)cc1 (stereo not given)	4	1	0	-3	-5	7
O=C(Cc1ccccc1)N1CCN(C(=O)c2cccs2)CC1	8	-2	1	6	13	27
COc1ccc(S(=O)(=O)N(CC(=O)NCCCN(C)C)c2ccc(C)cc2)cc1OC	9	4	0	14	6	-10
O=C(NCC1COCCO1)C1CCN(S(=O)(=O)c2ccccc2)CC1 (stereo not given)	-7	6	10	3	7	5
COCC(=O)Nc1sc2c(c1C(=O)OC)CCC(C)C2 (stereo not given)	9	2	2	-3	1	11

Not all compounds are listed. The share of hits here may be higher or lower than overall.
